Source: PubChem BioAssay (ICCB-Longwood Screening Facility, Harvard Medical School)
BmaI1 enzyme – BmaI1 acyl-homoserine lactone synthase inhibition – biochemical, fluorescence intensity, with counterscreen (AID 720554) | inhibition, % | 12,000 tested, 0.4% active | BmaI1 enzyme assay, fluorescence intensity; hits give high values; test concentration not given here; a few actives read low; strong numbers were not always called active;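 active = both replicates within 2 robust z-scores of the inhibited control and a quiet counterscreen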;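 note: 0% = uninhibited enzyme and 100% = inhibited control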
BmaI1 enzyme counterscreen – also measured in BmaI1 enzyme; calls as there; inhibition, %; measured here: counterscreen; design of the counterscreen not given here;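 first of two replicates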
* = called active by the depositor. A portion of the library (hit frequency here may not be typical).

Each structure is followed by: BmaI1 enzyme	BmaI1 enzyme counterscreen
Cc1cc(OCC(=O)N2C(C)CCCC2C)ccc1Cl (centres undefined)
  2	-4
CC(C)CCn1c(COc2ccccc2)nn(CCC#N)c1=S
  -8	-4
CCN(CC(=O)NC1CCS(=O)(=O)C1)C(=O)c1ccccc1-c1ccccc1 (centres undefined)
  12	4
CC(SCc1ccc(Br)cc1)C(=O)O (centres undefined)
  3	3
CNC(=O)NC(=O)C(C)Sc1nncn1-c1ccccc1 (centres undefined)
  -10	-8
O=C(OCn1nnc2ccccc2c1=O)C1CC(O)CN1S(=O)(=O)c1ccc(Cl)cc1 (centres undefined)
  13	16
CCN(C(=O)C(C)Nc1ccc(OC)cc1OC)C1CCCCC1 (centres undefined)
  38	8
C/C(=N\NC(=O)COc1cccc(Br)c1)c1ccco1
  21	19
CCN1C(=O)c2cccc3c(S(=O)(=O)N4CCC(C)CC4)ccc1c23
  6	-3
CC(=O)N(c1ccccc1)c1nc(COC(=O)c2cnc(C)cn2)cs1
  12	4
O=C(COC(=O)Cn1ccc(=O)[nH]c1=O)Nc1ccc(F)cc1
  8	4
O=C(c1csc2c1CCCC2)N1CCN(S(=O)(=O)c2cccs2)CC1
  20	8
O=C(OCC(=O)N1N=C2/C(=C/c3ccco3)CCCC2C1c1ccco1)c1ccccn1 (centres undefined)
  6	3
CCOc1ccc(NC(=O)COn2nnc3ccc(S(=O)(=O)N4CCOCC4)cc32)cc1
  6	6
COc1ccc(NC(=O)COC(=O)C23CCC(=O)N2c2ccccc2S3)cc1 (centres undefined)
  0	5
CCOc1ccc(/C=N/OC(C)C(=O)NCc2ccc3c(c2)OCO3)cc1 (centres undefined)
  20	14
Cc1csc(=O)n1CN1CCN(C(=O)C2COc3ccccc3O2)CC1 (centres undefined)
  18	8
C=CCN(C(=O)c1ccc(C)s1)c1nc(-c2ccc(S(C)(=O)=O)cc2)cs1
  15	2
O=C(CNC(=O)c1ccc2c(c1)OCO2)Nc1cccnc1
  10	8
O=C(N/N=C/c1ccc(N2CCCCC2)cc1)c1cccnc1
  8	55
CC1CC(C)CN(C(=O)CSc2n[nH]c(N)n2)C1 (centres undefined)
  22	20
CCCN(CC(=O)Nc1ccc(F)c(F)c1F)Cc1cc(=O)n2ccsc2n1
  8	8
COCCn1cnnc1SCC(=O)Nc1ccc(Cl)cc1F
  8	8
CC(SC1CCCC1)C(=O)NC(C)(C#N)C(C)C (centres undefined)
  11	8
Oc1c(Br)cc(Br)cc1C=NC1CC1
  -15	-12
O=C(NNc1ccccc1)Nc1ccccc1F
  0	-6
CSc1ncccc1C(=O)OC(C)C(N)=O (centres undefined)
  8	3
CC1CCc2c(cnc3ncnn23)C1 (centres undefined)
  6	5
COc1ccc(N2CCN(C(=S)C3CCCCC3)CC2)cc1
  12	-6
CN(CC(=O)Nc1ccc(Cl)cc1)C(=O)c1ccc(OC(F)F)cc1
  13	17
CN(C)c1ccc(C(CNC(=O)CSc2nnc(-c3ccc(F)cc3)o2)c2c[nH]c3ccccc23)cc1 (centres undefined)
  7	-18
CCn1c(CSc2ncnc3sccc23)nc2cc(S(=O)(=O)N(C)C)ccc21
  11	4
CCS(=O)(=O)N1Cc2ccccc2CC1C(=O)NCCc1ccccc1 (centres undefined)
  11	2
Cc1cccc(CN2CCN(C(c3ccccc3)c3ccc(Cl)cc3)CC2)c1 (centres undefined)
  2	7
Oc1[nH]c2ccc(Br)cc2c1N=NC(=S)NCC1CCCO1 (centres undefined)
  14	-4
O=C(O)CCc1ccc(Br)cc1
  7	-2
Cc1cccc(-n2ccnc2SCC(=O)N2CCN(C(=O)C3COc4ccccc4O3)CC2)c1 (centres undefined)
  22	13
CCOC(=O)c1c(-c2ccccc2)cn2c1SCC2=O
  18	2
O=C(NCc1ccccc1)c1cccc(OCC(=O)N2CCOCC2)c1
  -14	-11
Nc1sc2c(c1C(=O)N1CCOCC1)CCCC2
  54	10
CC(Sc1nnc(C2CCCCC2)n1N)C(=O)NC(N)=O (centres undefined)
  2	4
O=C(COC(=O)CCN1C(=O)C2CC=CCC2C1=O)Nc1cc(Cl)cc(Cl)c1 (centres undefined)
  4	-4
O=C(OCC(=O)N1CCCc2ccccc21)C1COc2ccccc2O1 (centres undefined)
  8	-1
CCN(CC(=O)Nc1ccc(N2CCOCC2)cc1)C(=O)c1nc2nccc(C)n2n1
  10	-11
CCCCc1ccc2nc(NC(=O)C3=NN(C)C(=O)CC3)sc2c1
  19	22
Cc1cc(C)c2c(c1)/C(=N/NC(=O)CCN1CCOCC1)CCC2
  -2	2
O=c1/c(=C/c2ccc(-c3cccc(C(F)(F)F)c3)o2)sc2nc(-c3ccncc3)nn12
  4	8
Nc1nc(N)c2nc(-c3ccccc3)c(N)nc2n1
  5	21
O=C(COC(=O)C1(c2ccccc2)CC1)Nc1nnc(-c2ccccc2)o1
  26	-9
Cc1ccc(S(=O)(=O)NCC(=O)OCc2cc(=O)n3cc(C)ccc3n2)cc1
  13	2
O=C(O)c1cc2c(F)cccc2s1
  12	14
N#CCCn1nnc(-c2ccc(Cl)cc2)n1
  19	4
Cc1cc(C(=O)Nc2ccc(N3CCOCC3)cc2)no1
  41	-5
N#CC(C(=O)CSc1nc2ccccc2n1-c1ccccc1)c1ccccc1 (centres undefined)
  18	6
COc1ccc(CNC(=O)/C=C/c2c(C)nn(C3CCS(=O)(=O)C3)c2Cl)cc1OC (centres undefined)
  11	12
COc1ccc(-c2noc(COC(=O)CSc3ncnc4sccc34)n2)c(OC)c1
  8	2
C=CCNC(=O)Cc1ccc(-c2ccccc2)cc1
  10	3
O=C(c1cccc(S(=O)(=O)NC2CC2)c1)N1CCN(c2ncccn2)CC1
  18	5
COc1cc2c(cc1OC)CNCC2
  8	8
O=C(/C=C/c1c(Cl)nc2sccn12)Nc1ccc2c(c1)OCCO2
  16	16

(listing goes on)
Each structure is followed by: BmaI1 enzyme	BmaI1 enzyme counterscreen
Cc1noc(C)c1COc1cccc(C(=O)NC2CCCCCC2)c1
  -1	11
Cc1noc(C)c1CSc1ncccc1C(=O)Nc1ccnn1C1CCCC1
  48	19
CCCN1CCN(C(=O)c2c(C)nn(-c3ccccc3)c2Cl)CC1
  8	4
O=C(CN1CCN(S(=O)(=O)c2ccccc2)CC1)Nc1ccc2c(c1)CCC2
  -1	-4
O=C(Nc1ccc(F)cc1)C(c1ccccc1)N1CCN(c2ccccc2F)CC1 (centres undefined)
  20	13
CC(NC(=O)c1cccn1C)C12CC3CC(CC(C3)C1)C2 (centres undefined)
  18	15
O=C(OCC(=O)N(c1ccccc1)C1CCCCC1)C1COc2ccccc2O1 (centres undefined)
  2	-2
Cc1ccccc1N(CC(=O)Nc1ccccc1N1CCN(C)CC1)S(C)(=O)=O
  14	2
C=CCn1c(SCC(=O)N(C(C)C)C(C)C)nc2scc(-c3ccco3)c2c1=O
  6	2
Cc1cc(C(=O)CN(CC2CCCO2)C2CCS(=O)(=O)C2)c(C)n1C (centres undefined)
  3	-6
Cc1cc(C)n2nc(C(=O)OCC(=O)N3CCN(S(=O)(=O)c4ccccc4)CC3)nc2n1
  12	6
COc1ccccc1-n1cnnc1SCc1ccc(C)cc1
  9	8
Cc1ccc(C(=O)NCCN2C(=O)S/C(=C\c3ccc(F)cc3)C2=O)cc1NC(=O)c1ccco1
  6	-10
NC(=O)CSc1nc(NC2CC2)c2ccccc2n1
  -2	-6
O=C1CSc2ccc(C(=O)N3CCc4ccccc43)cc2N1
  19	12
CCCn1c(SCc2nc(N)nc(Nc3ccccc3CC)n2)n[nH]c1=O
  16	10
O=C(c1cccc(S(=O)(=O)N2CCc3ccccc32)c1)N1CCCCC1CO (centres undefined)
  -2	-6
CC(=O)N(Cc1ccc(Br)cc1)c1ccccc1C(=O)O
  -3	0
Nn1c(SCc2ccccc2)n[nH]c1=S
  65	42
N#Cc1c(N)n(CCNC(=O)c2ccc(Cl)cc2)c2nc3ccccc3nc12
  10	8
COC(=O)/C(C#N)=C(\NCc1ccc(Cl)cc1Cl)SC
  4	-1
Cc1ccc(CNC(=O)C2c3ccccc3Oc3ccccc32)n1C
  0	4
CC(C)c1ccc(-n2ccnc2SCC(=O)NC2CCC(O)CC2)cc1 (centres undefined)
  10	-5
Cn1ccnc1SCC1CCCCO1 (centres undefined)
  -12	-4
COc1cc(/C=C/C(=O)OCC(=O)NC2CCCCC2)ccc1O
  60	46
CC(Sc1ncnc2sc3c(c12)CCC3)C(N)=O (centres undefined)
  14	4
O=C(CSc1ccc(Br)cc1)Nc1ccc(S(=O)(=O)NCc2ccco2)cc1
  5	4
c1ccc(-c2nc(CN3CCNCC3)co2)cc1
  6	2
Cn1cccc1/C=C/C(=O)Nc1ccc2c(c1)CCC2
  21	14
O=C(OCC(=O)N1CCC(Cc2ccccc2)CC1)c1ccc(O)cc1
  2	-8
CCC1=NP(N2CCN(C)CC2)(N2CCN(C)CC2)=NC(N2CCN(C)CC2)=C1C
  -2	-4
CC(Sc1ccccc1)C(=O)N1CCN(c2ccccc2F)CC1 (centres undefined)
  8	0
CC1CCN(C(=O)COC(=O)CCc2nc3ccccc3s2)CC1
  10	1
CCCN(CC1CC1)C(=O)CSC1=N/C(=C\c2ccco2)C(=O)N1c1ccc(OC(F)F)cc1
  3	0
CCOC(=O)Cc1csc(SCc2c(C(=O)OCC)oc3ccccc23)n1
  -2	-4
CCS(=O)(=O)c1ccc2c(c1)N=Cc1c(C)nn(Cc3ccc(Cl)cc3)c1O2
  -2	-6
COC(=O)/N=C/c1c(NCc2ccccc2)nc2c(C)cccn2c1=O
  6	3
CCOc1ccc(C(=O)NCC(=O)NC2CCN(Cc3ccccc3)CC2)cc1
  12	6
Cc1cc(C(=O)CSc2ccc(S(=O)(=O)N(C)C)cn2)c(C)n1CCc1cccs1
  10	-4
CC1CN(C(=O)C(C)OC(=O)c2ccc3ncsc3c2)CC(C)O1 (centres undefined)
  13	-9

Among those listed so far, these have bromine.
Each structure is followed by: BmaI1 enzyme	BmaI1 enzyme counterscreen
CC(SCc1ccc(Br)cc1)C(=O)O (centres undefined)
  3	3
C/C(=N\NC(=O)COc1cccc(Br)c1)c1ccco1
  21	19
Oc1c(Br)cc(Br)cc1C=NC1CC1
  -15	-12
Oc1[nH]c2ccc(Br)cc2c1N=NC(=S)NCC1CCCO1 (centres undefined)
  14	-4
O=C(O)CCc1ccc(Br)cc1
  7	-2
CC(=O)N(Cc1ccc(Br)cc1)c1ccccc1C(=O)O
  -3	0
O=C(CSc1ccc(Br)cc1)Nc1ccc(S(=O)(=O)NCc2ccco2)cc1
  5	4

Further results follow.
Each structure is followed by: BmaI1 enzyme	BmaI1 enzyme counterscreen
C=CCn1c(=O)c2ccccc2n2c(SCC(=O)Nc3sc(C)c(CC)c3C(=O)OCC)nnc12
  18	2
CC1CCc2nc(NC(=O)Nc3cccnc3)sc2C1 (centres undefined)
  4	15
CCOC(=O)c1ccc(NC(=O)CC2C(=O)OCC3CCCCN32)cc1 (centres undefined)
  -6	-5
CCOc1ccc2nc(SCC(=O)c3cc(C)n(C(C)COC)c3C)sc2c1 (centres undefined)
  14	13
COc1ccc(NC(=O)c2ccc(Cl)c(S(=O)(=O)N3CCc4ccccc4C3)c2)cn1
  -4	-8
Nc1ncc(N=Nc2cc(C(=O)O)ccc2Cl)s1
  86	52
O=C(Nc1ccc(F)cc1)C(NCc1ccco1)c1ccccc1 (centres undefined)
  10	2
c1csc(NC2=NCCC2)n1
  0	-6
O=c1c2ccccc2c(-c2n[nH]c(=S)o2)nn1Cc1ccccc1
  18	-13
COc1ccc(CNC(=O)C(C)N2CCN(c3ccc(C(F)(F)F)cn3)CC2)cc1 (centres undefined)
  -5	-10
COc1ccc(-c2onc(C)c2-c2ccc3c(c2)OCCO3)c(O)c1
  14	4
CC1Cc2cc(C(=O)Cn3nnc4ccccc4c3=O)ccc2N1S(C)(=O)=O (centres undefined)
  -7	7
COc1ccc(-c2cc(C(=O)NN)n(-c3ccccc3)n2)cc1
  52	-20
N#CC1(NC(=O)COC(=O)c2ccccc2C(F)(F)F)CCCC1
  10	3
O=C(OCC(=O)N1CCOCC1)c1ccc(Cl)cc1
  6	-2
Cc1noc(C)c1COC(=O)c1ccc2c(c1)C(=O)N(Cc1ccccc1)C2=O
  18	12
NCCc1ccc2c(c1)OCCO2
  16	9
CN1CC[C@@]23CCCC[C@@H]2[C@@H]1Cc1ccc(O)cc13
  2	-2
O=C(OCN1C(=O)c2ccccc2C1=O)c1ccc2c(=O)n3c(nc2c1)CCC3
  32	5
Cn1c(Cc2cccs2)nnc1SCC(=O)N1CCNC1=O
  15	2
COCCN(Cc1nnc(-c2cccs2)o1)C(=O)C1CCN(S(=O)(=O)c2ccccc2)CC1
  11	2
Nn1c(SCCCC(=O)c2ccc(F)cc2)nnc1-c1cccnc1
  15	18
CC(C)(C)C(=O)CSc1nnc(Nc2ccccc2)s1
  17	2
CCc1ccc2nc(NC(=O)CCc3c(C)noc3C)sc2c1
  -6	-7
Cc1cc(C)nc(SCC(=O)OCC(=O)Nc2ccc(N3CCCCC3)cc2)n1
  28	-22

Whole records, quoted from the list:
Nn1c(SCCCC(=O)c2ccc(F)cc2)nnc1-c1cccnc1 in the list: BmaI1 enzyme: 15; BmaI1 enzyme counterscreen: 18
Cc1cc(C)nc(SCC(=O)OCC(=O)Nc2ccc(N3CCCCC3)cc2)n1 in the list: BmaI1 enzyme: 28; BmaI1 enzyme counterscreen: -22
CCc1ccc2nc(NC(=O)CCc3c(C)noc3C)sc2c1 in the list: BmaI1 enzyme: -6; BmaI1 enzyme counterscreen: -7
